Screening data: PubChem BioAssay, National Center for Advancing Translational Sciences (NCATS)
PINK1 modulator – A Quantitative High throughput Screen to Identify Chemical Modulators of PINK1 Expression; PINK1 immunofluorescence, high-content cytometry, 24 h; Potency, µM (highest dose often 76.6 µM), inactives show top-dose activation (PINK1 increase), most hits filed as activators; 410,000 compounds, 0.2% hits; active = well fitted activation curve with a large enough effect; inconclusive = small, poorly fitted or top-dose-only effect; inactive = flat fitted curve, though single readings scatter; cell line not stated here;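 also: potency is read from the fitted curve at half-maximal effect; % of control where 0% means no effect; nearly all actives have a fitted effect of over 65% in size; a mitochondrial uncoupler was the plate control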
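Readout is PINK1 immunofluorescence, quantified alongside mitochondrial, cell and nuclear markers by laser-scanning microplate cytometry. Cells from a stable line were exposed to compound titrations (5 concentrations) for 24 hours, with CCCP controls.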
ClpP mod – qHTS Assay for Activators of ClpP; ATP-dependent Clp protease proteolytic subunit (Bacillus subtilis (strain 168)), P80244; purified B. subtilis ClpP, FRET peptide cleavage, 20 min; AID 651965, 2013; Potency, µM (highest dose often 57.5 µM), for inactives: top-dose activity change, negative = active; 340,000 compounds, 1.9% hits; active = well fitted falling curve with a large enough effect; inconclusive = small, poorly fitted or top-dose-only effect; inactive = no such curve, though single readings can be large or run the other way; also: potency is read from the fitted curve at half-maximal effect; the source files actives as falling curves though it sought activators and does not explain the sign; nearly all actives have a fitted effect of over 65% in size; many hits overshoot -100%
Target sequence (P80244 whole entry, looked up): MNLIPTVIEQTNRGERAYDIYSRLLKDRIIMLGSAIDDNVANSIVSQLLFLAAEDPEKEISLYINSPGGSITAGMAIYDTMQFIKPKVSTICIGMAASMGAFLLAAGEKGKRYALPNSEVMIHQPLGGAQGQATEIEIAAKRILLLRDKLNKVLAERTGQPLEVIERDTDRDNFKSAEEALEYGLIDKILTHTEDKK
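ClpP 10 microg/mL final, pH 8 Tris/KCl buffer with BSA, glycerol, Tween-20; compound pinned in; FRET-FV substrate; RT 20 min; Ex320/Em430; ΔFRET vs ADEP 5.8 microM, DMSO, no enzyme.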
TRPML1 ag – qHTS for Agonists of the Human Mucolipin Transient Receptor Potential 1 (TRPML1) | Mucolipin-1 (Homo sapiens), Q9GZU1 | activation, % (concentration not given with the values) | 410,000 compounds, 0.12% hits | TRPML1-expressing cells, Ca2+ dye fluorescence, FDSS; host cell line not named in the record; reference of the full effect not given here | AID 624414, 2012; in the data active = activation above about 50%; inconclusive = about 30% to 50%; inactive = below about 30%; also: 0% is about no effect; the text of the record puts the active cut at 80%
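TRPML1-DL cells, Tet-induced overnight (~16 h, 37 degrees C), loaded 45-90 min at room temperature with Ca8 no-wash calcium dye plus quencher. FDSS fluorescence: 10 s baseline, compound pin-transfer, 110 s agonist read, then EC80 54-4 (4uM final) and 110 s antagonist read.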
TRPV1 PAM – HTS Assay for Compounds that Act as Potentiators of the Vanilloid Receptor 1; 320,000 compounds, 0.02% hits; TRPV1-expressing cells, Fluo-8 calcium influx, capsaicin EC20 potentiation; host cell line not named in the record; control for the full effect not named in the record; potentiation, % at 8.33 µM; AID 540277, 2011; active means potentiation above 80%; inconclusive means 30% to 80%; inactive means below 30%; also: 0% is about no effect
Target sequence (Q8NER1 whole entry, looked up): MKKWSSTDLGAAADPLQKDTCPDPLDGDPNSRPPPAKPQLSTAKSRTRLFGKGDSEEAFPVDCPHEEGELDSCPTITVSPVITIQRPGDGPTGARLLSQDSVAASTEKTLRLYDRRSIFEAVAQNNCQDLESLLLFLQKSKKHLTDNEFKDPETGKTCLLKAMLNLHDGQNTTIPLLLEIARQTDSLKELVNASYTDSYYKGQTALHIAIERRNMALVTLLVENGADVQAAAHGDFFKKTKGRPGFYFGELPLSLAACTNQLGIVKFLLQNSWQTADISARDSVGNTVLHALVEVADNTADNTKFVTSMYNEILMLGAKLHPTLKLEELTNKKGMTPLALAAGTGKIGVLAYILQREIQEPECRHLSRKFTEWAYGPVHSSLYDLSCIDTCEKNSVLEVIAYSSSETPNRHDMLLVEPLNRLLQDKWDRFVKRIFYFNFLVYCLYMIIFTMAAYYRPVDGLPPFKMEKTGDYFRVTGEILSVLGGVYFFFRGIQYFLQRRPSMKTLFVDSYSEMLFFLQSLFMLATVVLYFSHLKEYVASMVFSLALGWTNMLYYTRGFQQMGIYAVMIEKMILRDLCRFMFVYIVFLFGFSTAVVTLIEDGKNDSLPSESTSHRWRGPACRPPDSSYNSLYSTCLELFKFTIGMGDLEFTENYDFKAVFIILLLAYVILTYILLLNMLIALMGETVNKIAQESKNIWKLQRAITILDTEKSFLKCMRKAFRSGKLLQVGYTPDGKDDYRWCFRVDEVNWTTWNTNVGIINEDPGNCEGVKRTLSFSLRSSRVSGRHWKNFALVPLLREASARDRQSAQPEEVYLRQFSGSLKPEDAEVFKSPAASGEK
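Cells expressing TRPV1 were dye-loaded with Fluo-8 and read kinetically: 10 s baseline, 3 min after compound (agonist portion), then 2 min after EC20 capsaicin (allosteric enhancer portion). Calcium-bound dye fluorescence at 480/520 nm.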
Menin-MLL FL inh – qHTS Assay for Inhibitors Targeting the Menin-MLL Interaction in MLL Related Leukemias: Competition With Fluorescein Labeled MLL-derived Peptide | Fluorescence polarization, fluorescein-MLL peptide displacement from menin | FP activity change, % at 61.4 µM | 290,000 tested, under 10 active | AID 1766, 2009; inconclusive = falling polarisation curve, or a change in total fluorescence; inactive = total fluorescence flat and polarisation flat or rising; no compound was filed as active; the % refers to the polarisation; negative = inhibition;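 also: % of control where 0% means no effect; inhibitors lower the polarisation; unlabelled MLL peptide was the positive control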
TRPML1 blocker – qHTS for Inhibitors of the Human Mucolipin Transient Receptor Potential 1 (TRPML1); Mucolipin-1 (Homo sapiens), Q9GZU1; TRPML1-inducible cells, Ca2+ dye fluorescence, FDSS; stronger effect = lower value; inhibition of EC80 agonist-evoked calcium signal; activity change, negative = inhibition, % (no concentration beside the values); 390,000 compounds, 0.02% hits; AID 624415, 2012; in the data active means activity change below about -50%; inconclusive means about -30% to -50%; inactive means above about -30%;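 also: stimulus is agonist 54-4 at its EC80 concentration; % is scaled to controls: 0 for no effect and ±100 for the full control effect; compound concentration not given in the record; the text of the record puts the active cut at -80%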
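Calcium fluorescence in TRPML1-DL cells induced overnight with Tet: a 110 s read after compound pin addition, then a 110 s antagonist read after challenge with 54-4 at 4 uM final (EC80).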
Sfp inh – qHTS Assay for Inhibitors of Bacillus subtilis Sfp phosphopantetheinyl transferase (PPTase). 4'-phosphopantetheinyl transferase ffp (Bacillus subtilis), Q9F4F7. Biochemical Sfp PPTase activity, qHTS. Potency, µM, without a hit: max response, negative = inhibition, actives largely listed as inhibitors. 310,000 compounds, 3.5% hits. AID 1490, 2009; active = well fitted inhibition curve with a large enough effect; inconclusive = small, poorly fitted or top-dose-only effect, or another doubt; inactive = no such curve, though single readings can be large or run the other way;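 also: the enzyme is Sfp with the accession as filed and its product quenches rhodamine fluorescence; potency is read from the fitted curve at half-maximal effect; 0% = enzyme reaction without inhibitor and -100% = no enzyme wells; top concentration of the series not given in the record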
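Fluorescence-quenching assay with 15 nM Sfp, 5 uM rhodamine-CoA and 12.5 uM BHQ-2-labelled ybbR peptide in pH 7.6 Hepes/MgCl2 buffer. Enzyme was pre-incubated with compound for 15 min at room temperature. Rate was taken from the 30-min fluorescence change (525/598 nm).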
An asterisk follows results filed as active; u = inconclusive; x = not tested or not shown; & = joins results of further samples; [ ] = another dose, or the depositor's remark.

SMILES | PINK1 modulator | ClpP mod | TRPML1 ag | TRPV1 PAM | Menin-MLL FL inh | TRPML1 blocker | Sfp inh
CCOC(=O)N1CCC(NC(=O)C(CC(C)C)NC(=O)C2CCC(C)CC2)CC1 (configuration not stated) | 4.1% | -0.3% | -1.0 | -0.9 | -2.6 | 8.2 | 1.4%
NNc1nc(-c2ccccc2)c2cc(Cl)ccc2n1 | 3.4% | x | -0.1 | 6.6 | 1.1 | 11.0 | -10.3%
COc1ccc(NS(=O)(=O)c2cccc(C(=O)NCC(c3ccccc3OC)N3CCCC3)c2)cc1 (configuration not stated) | 2.9% | -2.9% | 0.4 | u | x | -2.5 | x
COc1ccc2c(c1OC)C(=O)OC2Nc1nc(-c2ccccc2)cs1 (configuration not stated) | -2.9% | -0.7% | -0.1 | -6.1 | -0.8 | 39.0 | -6.0%
O=C(Nc1ccccc1)c1cccnc1N1CCCC1 | -3.3%[38.3 µM] | -0.5% | 0.3 | 5.7 | 2.8 | 0.2 | 9.1%
CC1CCN(S(=O)(=O)c2ccc3nc(Nc4ccc(C#N)cc4)ccc3c2)CC1 | 7.3% | 5.0% | 3.9 | x | x | 17.9 | x
O=C(NCc1ccccc1)C1CCC1 | -1.0% | -4.0% | -0.4 | -5.2 | 8.4 | 12.5 | 10.8%
CCN1C(=O)N[C@@H](c2cccc(C(F)(F)F)c2)[C@H](C(C)=O)[C@H]1C | 5.8% | 3.2% | 1.0 | x | 2.3[11.7 µM] | 1.5 | 13.2%
O=C(Cc1ccccc1)Oc1coc(CSc2ncccn2)cc1=O | 2.4% | x | -0.7 | 20.1 | -1.3 | 3.2 | 1.3%
Cc1ccc2nc(SCC(=O)c3c(N)n(C)c(=O)n(C)c3=O)[nH]c2c1 | 2.4% | x | 0.2 | -6.1 | 8.9 | -5.2 | -14.8%
O=C(NCCc1ccccc1)C1(c2ccccc2)CCCC1 | 2.0% | -1.0% | 1.8 | -22.7 | -2.4 | 5.6 | 11.1%
Cc1ccc(C([O-])=C(C(=S)NCc2ccccc2)[n+]2cccc(CO)c2)cc1[N+](=O)[O-] | 2.5% | x | 0.5 | x | x | 15.6 | x
COc1cccc(CNC(=O)CCS(=O)(=O)c2cccc3nonc23)c1 | -5.4% | -0.5% | 1.7 | 7.3 | 1.7 | 2.1 | 11.2%
Cc1cc(C)n(CC(=O)NNC(=O)c2cccc(C(F)(F)F)c2)n1 | -0.6% | -0.2% | 0.3 | 5.7 | x | 14.2 | 15.7%
Cc1ccc(C)c(S(=O)(=O)NCc2cccnc2)c1 | 2.5%[38.3 µM] | 0.1% | -0.3 | 3.4 | 2.0 | -5.9 | 0.9%
NC(=O)C(=O)N/N=C/c1c(F)c(F)c(F)c(F)c1F | 0.1% | 0.4% | 0.4 | 0.0 | -4.3 | -9.7 | 15.4%
O=C1CN(Cc2nc3cc(Cl)ccc3c(=O)[nH]2)CCN1 | 2.1% | x | 0.2 | -10.9 | 5.9 | -11.7 | 2.8%
COc1ccccc1N1CCN(C(=O)C2CCCCN2S(=O)(=O)c2ccc(C)cc2)CC1 (configuration not stated) | -0.6% | -2.2% | 16.4 | -8.4 | 0.4 | u | 9.4%
CCOC(=O)c1c(NC(=O)C2C3C=CC(CC3)C2C(=O)O)sc(C)c1CC (configuration not stated) | -1.7% | -15.2% | 1.6 | 5.2 | 0.1 | 4.5 | 10.2%
C=CCOCCN(CC)CC | 2.3% | x | 0.0 | -9.4 | u | 4.2 | 15.0%
COc1ccc(CNC(=O)CCNS(=O)(=O)c2ccc(NC(C)=O)cc2)cc1OC | 1.5% | -1.0% | 0.0 | 8.5 | x | -3.3 | x
CCOc1ccc(-c2nc(CSCC(=O)NC3CCCc4ccccc43)c(C)o2)cc1 (configuration not stated) | 2.2%[38.3 µM] | u | 4.0 | -14.1 | 3.1 | 36.0 | 22.4µM*
COc1ccccc1NC(=O)CCN1C(=O)/C(=C\c2cc(OC)c(OC)c(OC)c2)SC1=S | 6.8% | 0.3% | 0.2 | -15.0 | x | 3.3 | 56.2µM*
COc1ccc(S(=O)(=O)NC2CC2)cc1Cl | 0.1% | -5.8% | 1.4 | 18.7 | -3.6 | -3.3 | 14.1%
COc1ccc(/C=N/Nc2nc3ccccc3c(=O)[nH]2)cc1 | 5.7% | -2.7% | 1.0 | 4.6 | -1.9 | -10.9 | -25.2%
Fc1ccc(-c2n[nH]c(=S)n2CC2CCCO2)cc1 (configuration not stated) | -0.5% | -1.9% | -1.1 | 10.0 | -1.5 | -12.8 | -25.9%
CC1CCc2sc(C(=O)NNC(=S)NCC3CCCO3)cc2C1 (configuration not stated) | -0.5% | 51.8% | -0.6 | -10.6 | -3.5 | 2.7 | 25.4%
O=C(c1ccc(S(=O)(=O)N2CCCCC2)cc1)N1CCN(c2ccccc2)CC1 | 2.7%[38.3 µM] | -0.1% | 1.2 | -5.0 | -3.2 | 18.7 | 2.2%
CN(C)C(=O)CN(c1ccc(F)c(Cl)c1)S(C)(=O)=O | 0.7%[38.3 µM] | -1.5% | 0.8 | -2.6 | 0.1 | -2.0 | -2.9%
CC(=O)N1CCN(CCN=CC2=C(O)CC(C)(C)CC2=O)CC1 | 4.5%[38.3 µM] | -0.1% | 0.0 | 1.7 | 2.7 | -2.5 | 12.3%
O=C(c1ccccc1)c1ccc2nc(-c3ccc(NC(=O)c4ccccc4F)cc3)[nH]c2c1 | 5.9% | u | 0.6 | 6.2 | 2.9 | 8.2 | 8.4%
O=[N+]([O-])c1cc(Cl)cc2c1nc(NCCO)c1ccccc12 | -1.1% | x | 0.5 | -14.7 | 4.3 | -8.0 | -4.5%
CCOC(=O)/C(C#N)=C/c1c(N2CCN(c3cccc(Cl)c3)CC2)nc2c(C)cccn2c1=O | -1.8% | -2.2% | 3.3 | 11.0 | -2.1 | -29.2 | 8.4%
COc1ccc(N(C(=O)c2ccncc2)S(=O)(=O)c2ccc3c4c(cccc24)C(=O)N3C)cc1 | 6.0% | x | 0.9 | 22.9 | -0.5 | 2.0 | -4.0%
Cc1cccc(NS(=O)(=O)c2nnc(NC(=O)c3ccc(C)c(C)c3)s2)c1 | 0.3% | -3.7% | 0.1 | -7.8 | 3.8 | 1.6 | 30.8%[activator]
CCOC(=O)CC1NCCc2c1[nH]c1ccc(OC)cc21 (configuration not stated) | 5.6% | 0.0% | 0.3 | 1.0 | 0.9 | 5.8 | 4.0%
CCOc1cc(/C=N/NC(=O)c2ccc(-c3csc(Nc4ccc(C)cc4)n3)cc2)ccc1OCC(=O)O | 0.7% | x | 2.1 | 5.6 | 8.7 | 7.7 | u
COC(=O)c1ccc(/C=C/c2c(-c3ccc(OC)cc3)sc3ccccc23)cc1 | 1.4% | 5.3% | -0.4 | x | x | 16.4 | x
CCOc1ccc(-c2csc(NC(=O)c3ccco3)n2)cc1 | -0.4% | 4.4% | -0.2 | -15.6 | -1.0 | -15.4 | -6.8%
CC(=O)NC(C)(c1ccccc1)c1nc(-c2cccc3cccnc23)cs1 (configuration not stated) | 3.1% | 3.8% | -0.9 | x | x | x | x
C/C(=C\c1ccccc1)CN1CCC(C(=O)N2CCCC(C)C2)CC1 (configuration not stated) | -1.0% | 1.7% | 0.1 | -2.3 | -0.5 | -3.9 | -6.8%
O=C(N/N=C/c1ccccn1)c1cc(-c2ccc(Cl)s2)[nH]n1 | 10.6% | x | -0.1 | 20.1 | 1.2 | 8.4 | 3.7%
O=C(COc1cc(Cl)c(Cl)cc1Cl)Nc1cccc(O)c1 | 6.0% | 0.8% | 1.3 | 5.8 | 2.8 | 8.0 | 8.7%
O=[N+]([O-])c1ccc(C[n+]2ccc(Cc3ccccc3)cc2)cc1 | -0.4% | x | 1.5 | -3.2 | -5.9 | -24.3 | -14.8%
CC(=O)N1CCOc2cc(S(=O)(=O)NCc3ccc(F)cc3)c(C)cc21 | -0.5%&3.1% | 1.3%&-0.9% | 1.2&0.6 | -18.9 | -0.9 | 18.0&-6.0 | 12.6%
CC(C)C(=O)Nc1ccc(C(=O)NNC(=S)NC(=O)c2ccccc2[N+](=O)[O-])cc1 | 1.1% | 0.7% | 1.0 | 5.9 | 0.4 | -12.9 | 11.2%
COc1cccc(NC(=O)CSc2nc(=O)[nH]c3c2CCCC3)c1 | -0.2% | -7.4% | -0.7 | x | x | 6.0 | x
COc1ccc(-c2n[nH]c(=S)n2-c2cc(OC)ccc2OC)cc1 | 7.4% | x | 0.0 | 5.2 | 6.5 | -5.0 | 79.4µM*
CCc1sc(C(=O)Nc2ccc(N3CCOCC3)cc2)cc1C | 2.1% | x | -1.3 | x | x | 1.5 | x
Cc1ccc(CN=C(Nc2ccccc2)NC2CCCCC2)cc1 | 3.1% | x | 0.0 | -1.2 | -0.5 | -4.0 | 8.0%
Cc1cc(C)n(C(C)CNS(=O)(=O)c2ccc(C)c(C)c2)n1 (configuration not stated) | 3.7% | x | 0.7 | -0.7 | -5.9 | 10.2 | 2.7%
N#Cc1cccc(C(=O)OCC(=O)c2ccc3c(c2)NC(=O)CO3)c1 | 4.9% | -0.6% | 0.7 | -2.8 | x | -3.6 | x
CC(Sc1nc2sc3c(c2c(=O)n1-c1ccccc1)CCCC3)C(=O)O (configuration not stated) | 0.8% | -0.2% | 1.5 | 0.2 | 1.9 | -4.8 | 4.1%
O=C(c1ccco1)N1CCN(C(=S)Nc2ccc(Br)cc2Cl)CC1 | 1.6% | -1.0% | 0.6 | 7.0 | x | -9.2 | -6.1%

Random draw from the library. About 4.4% of those tested had a hit in this group.
